VDR inhibitor: inhibitors of human vitamin D receptor; VDR-SRC2-3 peptide fluorescence polarization, 2 h; Potency, µM, for the others: max response, negative = inhibition, most hits filed as inhibitors; hit rate 0.93% among 400,000; AID 504847; P11473; active = well fitted inhibition curve with a large enough effect; inconclusive = small, poorly fitted or top-dose-only effect, or another doubt; inactive = no such curve, though single readings can be large or run the other way; note: series mostly up to about 120 µM
Target sequence (P11473 whole entry, looked up): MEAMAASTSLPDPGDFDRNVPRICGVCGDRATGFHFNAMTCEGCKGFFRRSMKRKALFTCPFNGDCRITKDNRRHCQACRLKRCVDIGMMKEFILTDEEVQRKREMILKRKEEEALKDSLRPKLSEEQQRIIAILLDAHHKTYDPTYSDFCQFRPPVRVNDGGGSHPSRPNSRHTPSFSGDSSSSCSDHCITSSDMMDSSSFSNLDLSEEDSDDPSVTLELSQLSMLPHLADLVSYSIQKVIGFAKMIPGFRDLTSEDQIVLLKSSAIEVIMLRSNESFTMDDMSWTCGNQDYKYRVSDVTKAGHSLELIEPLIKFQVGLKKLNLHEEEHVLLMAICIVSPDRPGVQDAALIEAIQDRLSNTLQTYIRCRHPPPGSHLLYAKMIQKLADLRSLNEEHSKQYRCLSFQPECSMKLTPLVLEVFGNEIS
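VDR–SRC2-3 interaction, FP format. Cmpds 23 nl via pintool, brief spin, 2 h ambient incubation.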
An asterisk follows results filed as active; u = inconclusive; & = joins results of further samples; [ ] = another dose, or the depositor's remark. % is set by controls: 0 for no effect and ±100 for the full control effect; potency is the fitted concentration of half-maximal effect.

SMILES	VDR inhibitor
CCN(CC)C(=O)Oc1c(Cl)cc(Cl)c2cccnc12	31%[activator]
CCOc1ccc(CNC(=O)CCCOc2cc(=O)n(C)c3ccccc23)cc1	6%
Cc1cccc(C=Nc2ccc3c4c(cccc24)CC3)c1O	2%
C[C@H](C[C@H](N)C(=O)O)C(=O)O	2%&8%
CN(C)CCCNC(=O)c1cc(C(=O)C2CCCCC2)c[nH]1	7%
O=C(Nc1ccc(Cl)cc1)c1csc(-c2ccncc2)n1	6%
CC(NS(=O)(=O)c1ccc2c(c1)oc(=O)n2C)c1ccccc1 (centres undefined)	2%
COc1ccc(Cn2c(SCc3cc(C)ccc3C)nc3cc(OC)c(OC)cc3c2=N)cc1	6%
CCN1C(=O)N(C)[C@@H](c2ccccc2)C(C(=O)OC)=C1C	-18%
CC12CCC=CC1C(c1ccc(C(F)(F)F)cc1)N(Cc1ccccc1)C2=O (centres undefined)	-20%
CCOc1ccc(C(=O)NCC(=O)OCC(=O)N2CCC(C)CC2)cc1	-5%
Cc1ccc(S(=O)(=O)N2CCN(C(=O)c3ccccc3)C2)cc1[N+](=O)[O-]	-6%
C=C1C(=O)O[C@H]2C[C@H]1[C@@H](OC(C)=O)C/C(C)=C/CC/C(C)=C\CC[C@]2(C)O	u
CCC1=C(OC(=O)N(CC)CC)N2C(=O)OC(=NCC(=O)OC)[C@]2(C)[C@H]2C1=CC[C@H]1C(=O)N(CC(=O)OC)C(=O)[C@H]12	-9%
COC(CNC(=O)c1cc(Sc2nnc(C)s2)nc2ccccc12)OC	2%
CCN(CC)S(=O)(=O)c1ccc(S(=O)(=O)N2CCCC2C(=O)O)cc1 (centres undefined)	-10%
CCCCNS(=O)(=O)c1ccc(Br)cc1N1CCC[C@H]1CO	-18%
Cc1ccc(N2CCN(c3ccc(C)cc3)C(CC(=O)O)C2=O)cc1 (centres undefined)	16%
Fc1cc(F)c2nc(N3CCOCC3)sc2c1	7%
COc1ccc(NC(=O)c2cc(C)no2)cc1Cl	9%

Copied from the results shown (2 entries):
SMILES	VDR inhibitor
CCN(CC)C(=O)Oc1c(Cl)cc(Cl)c2cccnc12	31%[activator]
CCOc1ccc(CNC(=O)CCCOc2cc(=O)n(C)c3ccccc23)cc1	6%

A second format for 4 compounds above.
> COc1ccc(NC(=O)c2cc(C)no2)cc1Cl
  VDR inhibitor: 9%

> CCOc1ccc(C(=O)NCC(=O)OCC(=O)N2CCC(C)CC2)cc1
  VDR inhibitor: -5%

> COC(CNC(=O)c1cc(Sc2nnc(C)s2)nc2ccccc12)OC
  VDR inhibitor: 2%

> O=C(Nc1ccc(Cl)cc1)c1csc(-c2ccncc2)n1
  VDR inhibitor: 6%

(further entries)
SMILES	VDR inhibitor
O=C(O)C1OC2OC3(CCCCC3)OC2C2OC3(CCCCC3)OC12 (centres undefined)	-10%
Cc1cccc(NC(=O)c2nc[nH]c2C(=O)N2CCN(c3ccccc3)CC2)c1	-4%
Cc1ccccc1-n1c(=O)cc(N2CCN(C(=O)c3ccco3)CC2)[nH]c1=O	-28%
CC(C)(CN=C1NS(=O)(=O)c2ccccc21)CNC(=O)CN1C(=O)c2ccccc2C1=O	17%
CC(OC(=O)C1CCN(S(=O)(=O)c2ccccc2C(F)(F)F)CC1)C(=O)N(C)Cc1ccccc1 (centres undefined)	7%
O=C(NCCCc1ccccc1)c1cccc(NC(=O)C2CCCCC2)c1	3%
Cc1ncc(CN2CCC(C(=O)Nc3ccc(Oc4cccnc4)cc3)CC2)cn1	-8%
COc1ccc(OC)c(NC(=O)Cn2c(=O)c3cccn3c3ccccc32)c1	0%
O=C(CS(=O)(=O)c1cn(Cc2ccccc2Cl)c2ccccc12)N1CCOCC1	-20%
CCOC(=O)C1CCN(CC(O)COc2ccc(C(C)=O)cc2)CC1 (centres undefined)	-4%
Cn1c(=O)c2c(ncn2CCC(=O)N/N=C/c2ccccc2)n(C)c1=O	4%
NS(=O)(=O)c1ccc(CCNC(=O)C(=O)C2C(=O)Nc3ccccc32)cc1 (centres undefined)	-9%
CC1C(=O)NN=C1C(=O)N/N=C\C(Br)=C\c1ccccc1 (centres undefined)	-7%
N#Cc1cccc(NC(=O)CNc2cc(S(=O)(=O)N3CCOCC3)ccc2N2CCCC2)c1	9%
COC(=O)C1=C(C)N(c2ccccc2)/C(=C/c2ccco2)C1=O	8%
Cc1ccc(C(=O)CC(=O)c2cc(Cl)ccc2O)cc1	1%
c1ccc(CNCCCn2cnc3c(OCc4ccccc4)ncnc32)cc1	-7%
Cc1ccc(NC(=O)C(C)OC(=O)CCNS(=O)(=O)c2ccc(C)cc2)cc1 (centres undefined)	-19%
Cc1onc(-c2c(F)cccc2Cl)c1C(=O)N(C)CCc1ccccn1	3%
CCOc1ccc(NC(=O)N2CCCC2C(=O)NCc2ccco2)cc1 (centres undefined)	2%
CCN1CCN(Cc2ccc(NC(=O)c3ccc(C)c(/C=C/c4cnc(Nc5cc(N6CCNCC6)nc(C)n5)cn4)c3)cc2C(F)(F)F)CC1	25%
Cc1nn(CC(=O)OCC(=O)Nc2c(C(C)C)cccc2C(C)C)c(C)c1[N+](=O)[O-]	-3%
Cc1c(NC(=S)N2CCN(c3ccc(F)cc3)CC2)c(=O)n(-c2ccccc2)n1C	-15%
COc1ccc(-c2nn(-c3ccccc3)cc2/C=N/Nc2cccc(C(=O)O)c2)cc1	-10%
CC(=O)c1sc2nc(C)c3c(c2c1N)CCCC3	6%
Cc1cccc(-c2nc3sc(C)cc3c(=O)o2)c1	-3%
CCOC(=O)c1cnc2c(C)cc(C)cc2c1Nc1ccccc1OCC	-9%
CC(CCc1ccccc1)NC(=O)CN(C)Cc1ccccc1F (centres undefined)	-2%
CCC(Sc1nncn2c1cc1sccc12)C(=O)Nc1cccc(OC)c1 (centres undefined)	8%
Cc1cccc(-c2noc(CN(C(=O)/C=C/c3ccccc3Cl)C(C)C)n2)c1	-16%
COc1ccc(CCN2C(=O)CSC2=Nc2ccc(C)cc2C)cc1OC	10%
C=CCSc1n[nH]c(-c2ccccc2)n1	-8%
COc1ccc(C(C)=O)cc1CSc1nncn1-c1ccccc1	-7%
C=CCSc1nc2sc3c(c2c(=O)n1CC)CCc1ccccc1-3	25µM*
Cc1cc(=O)[nH]c(SCc2nc3ccc([N+](=O)[O-])cc3[nH]2)n1	-14%
CC(C)COc1ccc(C(=O)Nc2ccc(NC(=O)c3ccco3)c(Cl)c2)cc1	2%
Cn1cc(-c2cc3n(n2)CCC(=O)N3CC(=O)NCc2ccc(Cl)cc2)c2ccccc21	9%
CC(=O)c1cccc(N(CC(=O)Nc2cccnc2)S(C)(=O)=O)c1	12%
Nc1cccc(S(=O)(=O)Nc2ccc(SC(F)F)cc2)c1	3%
CCC1=NN2C(=N)/C(=C/c3ccc(OS(=O)(=O)c4ccc(C)cc4)c(OC)c3)C(=O)N=C2S1	-12%

With a hit mark in VDR inhibitor, among the entries above:
SMILES	VDR inhibitor
C=CCSc1nc2sc3c(c2c(=O)n1CC)CCc1ccccc1-3	25µM*

Following part
SMILES	VDR inhibitor
O=C(COC(=O)c1cc(-c2ccccc2)nc2ccccc12)Nc1ccc2c(c1)OCO2	0%
COc1ccc(-c2[nH]c(-c3ccc(C)cc3)nc2SCC(=O)NC2CCCC2)cc1	-3%
FC(F)(F)c1ccccc1-c1ccc2ncnc(N3CCOCC3)c2c1	u
O=C(Oc1ccccc1-c1nnco1)c1ccccc1	21%
Cc1cc(C)cc(OCC(=O)NC2CCCc3ccccc32)c1 (centres undefined)	-8%
Cc1ccc(Cn2ccc(O)c(Cc3ccccc3)c2=O)cc1	-21%
COc1cc([C@@H]2CC=C(C(=O)O)[C@H](c3cccc(Cl)c3)N2S(=O)(=O)c2ccc(C)cc2)cc(OC)c1OC	7%
CCOC(=O)c1cc2c(n(-c3ccccc3)c1=O)CC(C)(C)CC2=O	-3%
Cc1ccccc1C(=O)OCc1cc(=O)n2nc(-c3cccs3)sc2n1	-4%
COc1cc(Br)cc(/C=C/c2ccc3cccc(O)c3n2)c1O	-7%
COc1cc(/C=N\Nc2nc3ccccc3o2)cc(OC)c1OC	-6%
COc1ccc(/C=C/C(=O)OCC(=O)NC(C)CCc2ccccc2)cc1 (centres undefined)	2%
Cc1ccc(C(=O)N(CN2CCCC2=O)c2ccccc2)cc1C	-12%
O=C(NC1c2ccccc2Oc2ccccc21)c1ccc([N+](=O)[O-])cc1	6%
Cn1c(=O)c2c(ncn2CC(COCc2ccc(Cl)cc2)OCc2ccc(Cl)cc2)n(C)c1=O (centres undefined)	6%
Cc1cccc(C)c1Nc1c(-c2ccc(Cl)s2)nc2ncccn12	-2%
Cc1ccccc1Nc1c(-c2cccnc2)nc2cccc(C)n12	-8%&-29%
COc1ccc(S(=O)(=O)N(CC(=O)N/N=C/c2ccc(C(=O)O)cc2)Cc2ccccc2)cc1OC	-5%
O=c1[nH]c2cc3c(cc2cc1CN(CC1CCCO1)S(=O)(=O)c1ccc(Cl)cc1)OCCO3 (centres undefined)	1%
CC(C)(C)c1ccc(-c2noc(CCC(=O)N3CCOCC3)n2)cc1	-13%

Four entries from above, ordered by number of heavy atoms, ascending.
SMILES	VDR inhibitor
Cc1ccc(Cn2ccc(O)c(Cc3ccccc3)c2=O)cc1	-21%
Cc1cccc(C)c1Nc1c(-c2ccc(Cl)s2)nc2ncccn12	-2%
COc1ccc(-c2[nH]c(-c3ccc(C)cc3)nc2SCC(=O)NC2CCCC2)cc1	-3%
COc1cc([C@@H]2CC=C(C(=O)O)[C@H](c3cccc(Cl)c3)N2S(=O)(=O)c2ccc(C)cc2)cc(OC)c1OC	7%

Additional structures:
SMILES	VDR inhibitor
Cc1ccccc1OCC(=O)NNC(=O)c1cc(S(=O)(=O)N2CCOCC2)ccc1N1CCCC1	-14%
CC(=O)Nc1cccc(C(=O)OCC(=O)c2ccccc2Cl)c1	-2%
CCOC(=O)N1CCC(N2CC34C=CC(O3)C(C(=O)O)C4C2=O)CC1 (centres undefined)	-6%
CCOC(=O)C(NC(=O)NCc1ccccc1OC)(OCC)C(F)(F)F (centres undefined)	-3%
CC(=O)Nc1cccc2c1C(=O)NC2=O	-14%
CSc1sc(C(=O)NCC2CC2)c(-c2cccs2)c1C#N	5%
Cn1c(=O)[nH]c(=O)c2c1nc(N1CCN(CCO)CC1)n2CCSc1nc2ccccc2s1	-5%
Nc1cc(=O)nc(SCC(=O)NCc2ccccc2)n1CCc1ccccc1	13%
COc1cc(CNc2ccc3[nH]c(=O)[nH]c3c2)ccc1OCc1ccccc1Cl	-3%
Nc1c(S(=O)(=O)O)cc(Nc2cccc3ccccc23)c2c1C(=O)c1ccccc1C2=O	35µM*
O=C(COC(=O)c1oc2ccccc2c1CSc1ccc(Cl)cc1)NC1CCCC1	-2%
Cn1cccc1C(=O)N1CCC2(CC1)CN(c1ccncc1)C2	-4%
COc1cc(C2CC(=O)Nc3ccc4ccccc4c32)ccc1OC(=O)C(C)C (centres undefined)	-7%
COc1ccccc1CNC(=O)Cn1c(=O)nc(-c2ccccc2)c2ccccc21	12%
COc1ccc(C)cc1S(=O)(=O)n1nc(C)cc1C	8%
CCOC(=O)c1cnn(CCOC(=O)c2cccs2)c1NC(=O)c1cccs1	12%
NS(=O)(=O)c1ccc2nc(NC(=O)c3ccc(Br)o3)sc2c1	-5%
Cc1ccc(NC(=O)CCc2nc(-c3cccs3)no2)c(Br)c1	-13%
CNS(=O)(=O)c1cccc(C(=O)NNC(=O)CN(C)S(=O)(=O)c2ccc(Cl)cc2)c1	5%
CC(=O)c1ccc(NC(=O)CC(NCCC2=CCCCC2)C(=O)O)cc1 (centres undefined)	-5%
COC(=O)c1ccc(NCC(=O)Nc2cc(C)cc(C)c2)cc1	9%
Cc1cccc(NC(=O)c2nc[nH]c2C(=O)N[C@@H](Cc2ccccc2)C(=O)OCc2ccccc2)c1	-29%
CCn1nnnc1SCC(=O)Nc1sc(C)c(C)c1C#N	-6%
NS(=O)(=O)c1ccc(NC(=O)COC(=O)COc2ccc3ccccc3c2)cc1	-8%
COc1ccc(C)cc1NC(=O)C(=O)NCC(c1cccnc1)N1CCN(c2ccccc2F)CC1 (centres undefined)	10%
CC1CN(Cc2csc(-c3ccc(Cl)cc3)n2)CC(C)O1 (centres undefined)	2%
CC(NC(=O)C(=O)NN=C1CCC(C(C)(C)C)CC1)c1ccccc1 (centres undefined)	-13%
Cc1cc(C)c2nc(N3CCCC(C(=O)NCCCN4CCOCC4)C3)sc2c1 (centres undefined)	-5%
Cc1ccc(C(=O)N/N=C\C=C\c2ccccc2[N+](=O)[O-])cn1	4%
CC1c2ccsc2CCN1C(=O)NC(=O)c1ccc(Cl)cc1 (centres undefined)	5%
CC(=O)[C@H]1[C@H](CCc2ccccc2)NC(=O)N(Cc2ccccc2)[C@@H]1C	-13%
CC1(C)CC(=O)c2cc(C(=O)O)c(=O)n(-c3ccccc3)c2C1	-10%
COc1ccccc1/C=N/NC(=O)c1ccc(-c2ccccc2)cc1	6%
O=C(CNC(=S)N(CCCN1CCOCC1)Cc1cccs1)NCCCN1CCOCC1	6%
OCC(CO)(CO)NCC(O)CN1c2ccccc2Sc2ccccc21 (centres undefined)	-17%
O=C(Nc1cccc2ccccc12)N(c1ccccc1)c1ccccc1	-26%
CCCc1nc2cc3c(cc2[nH]1)n(C)c(=O)n3C	-18%
COc1ccc(/C(N)=C/C(=O)C(C)(C)C)cc1	7%
CCOC(=O)C1CCN(C(=O)c2cc3c(C)cc(C)cc3[nH]2)CC1	-3%
Cn1c(=O)c2c(SCC(=O)N3CCc4ccccc43)nc(-c3cccc(F)c3)nc2n(C)c1=O	11%
COc1ccc(C(=O)NC(=S)N2CCNC(=O)C2CC(=O)OC(C)C)cc1 (centres undefined)	-15%
Cc1ccc(S(=O)(=O)Nc2cccc(S(=O)(=O)Nc3ccccc3C(=O)O)c2)c(C)c1	8%
O=C(O)CCCc1ccc2c(c1)CCc1ccccc1-2	-19%
COc1cc2c(cc1OC)CN(CC(=O)Nc1ccc(S(=O)(=O)N(C)C)cc1)CC2	-1%
O=C1NC(=O)/C(=C/C(=O)N2CCOCC2)S1	-8%

Some of the compounds tested; count on the stated rates, not on these rows.
